MenB inh: Mtb MenB enzyme inhibition; MenB enzyme assay, absorbance read-out; some hits fall short of the stated cut; 100,000 compounds, 0.43% hits; AID 540299; inhibition, %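 (about 12 µg/mL by stock and volumes)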; P9WNP5;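 active = mean of two replicates above 30%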;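 also: 0% = no compound and 100% = wells with inactive enzyme; the first replicate is given; strong numbers were not always called active; inactives centre near -10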
Target sequence (P9WNP5 whole entry, looked up): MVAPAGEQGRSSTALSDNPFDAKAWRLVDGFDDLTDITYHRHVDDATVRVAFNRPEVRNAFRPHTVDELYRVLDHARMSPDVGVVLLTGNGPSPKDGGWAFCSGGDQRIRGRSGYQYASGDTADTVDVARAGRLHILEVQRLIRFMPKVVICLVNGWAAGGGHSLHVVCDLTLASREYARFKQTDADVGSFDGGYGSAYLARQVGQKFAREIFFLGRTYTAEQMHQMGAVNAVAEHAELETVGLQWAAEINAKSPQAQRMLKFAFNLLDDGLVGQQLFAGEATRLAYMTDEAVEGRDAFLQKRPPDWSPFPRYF
Polio RdRp inh: poliovirus RNA polymerase inhibition | P03300 | poliovirus polymerase elongation, fluorescence polarization; hits give low values | % elongation, % (compound at 16.7 µg/mL) | 150,000 compounds, 0.66% hits | AID 588519; in the data active = % elongation below about 90%; also: some results filed as inactive read as strong as hits
Target sequence (P03300 1749-2209 limits assumed): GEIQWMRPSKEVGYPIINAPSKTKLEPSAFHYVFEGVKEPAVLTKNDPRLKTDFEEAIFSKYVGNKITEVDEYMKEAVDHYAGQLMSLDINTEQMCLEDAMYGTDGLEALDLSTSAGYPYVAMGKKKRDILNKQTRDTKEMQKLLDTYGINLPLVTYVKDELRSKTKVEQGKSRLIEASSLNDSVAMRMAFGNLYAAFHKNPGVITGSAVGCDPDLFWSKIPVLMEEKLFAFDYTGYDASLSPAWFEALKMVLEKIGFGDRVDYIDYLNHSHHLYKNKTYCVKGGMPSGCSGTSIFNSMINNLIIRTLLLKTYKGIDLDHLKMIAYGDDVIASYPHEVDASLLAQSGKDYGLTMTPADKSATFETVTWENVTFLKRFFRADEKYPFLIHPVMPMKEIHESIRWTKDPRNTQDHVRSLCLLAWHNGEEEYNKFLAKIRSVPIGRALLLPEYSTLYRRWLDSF
MbtI inh: MbtI salicylate synthase inhibition; purified MbtI enzyme, fluorescence intensity read-out; inhibition, %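 (about 17 µg/mL by stock and volumes)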; 100,000 compounds, 0.89% hits;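 active = above 50% in both replicates, above 80% if mildly self-fluorescent; inactive = the rest, strongly fluorescent compounds included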;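 also: 0% = mean of negative and 100% = mean of positive controls; one replicate is shown; some compounds called inactive have numbers as strong as hits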
Polio RdRp inh intensity: also measured in Polio RdRp inh; calls as there; % elongation; measured here: total intensity read-out; formula for this scale not given here;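 total fluorescence in place of polarization; lower means less elongation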
An asterisk follows results filed as active; i = inactive; x = not tested or not shown.

SMILES,MenB inh,Polio RdRp inh,Polio RdRp inh intensity,MbtI inh
CC(C(=O)O)n1c2ccccc2c2cnn(C)c(=O)c21 (stereo unspecified),-7,103,106,65
CCOC(=O)c1ccc(S(=O)(=O)N2CCN(CN3C(=O)CCC3=O)CC2)cc1,16,104,101,2
CC(O)c1cccc(NC(=O)c2cnn3c2NC(c2cccs2)CC3C(F)(F)F)c1 (stereo unspecified),3,104,99,8
CCOC(=O)c1c[nH]n(-c2ccccc2)c1=O,x,101,103,4
CS(=O)(=O)C1=NSC2=NC(=O)/C(=C\c3ccco3)C(=N)N21,-12,66*,23*,58
O=C1CCC(=O)N1CNc1ccccn1,-13,109,110,-20
O=C(c1cncc(Br)c1)N(c1nccs1)C1CCCCC1,-3,111,114,0
CCN(CC)CC#N,-16,95,105,3
CC1=CC(=O)CC(C)(C)C1(O)/C=C/C(C)=C/C(=O)O (stereo unspecified),-11,103,101,0
Cc1ccc(Nc2ccc(N3CCN(C(=O)CCc4ccccc4)CC3)nn2)cc1,0,99,101,-2
NC(N)=N/N=C/c1ccc(O)c(Cl)c1,-22,102,104,-5
Cc1cc(C)c(NC(=S)NCCO)c(C)c1,-5,101,107,-8
CCN(CC)C(=O)c1cc(-c2cccs2)nn1-c1ccccc1,-5,101,106,-4
CCN(CC)CCNc1nc2c(c(=O)n(C)c(=O)n2C)n1CCc1ccccc1,23*,103,104,19
CN1C(=O)c2ccccc2N2C(=O)CCC12C(=O)O (stereo unspecified),7,101,106,-3
COc1ccccc1N1CCN(S(=O)(=O)c2ccc3[nH]cc(C(=O)O)c(=O)c3c2)CC1,-17,100,96,4
CCn1c(COc2cc(C)ccc2C)nnc1SC(C)C(=O)Nc1ccc2c(c1)OCO2 (stereo unspecified),-30,101,102,5
CCOC(=O)Nc1c[nH]c2c(C)cccc2c1=O,-3,101,102,125
C/C(=N\NC(N)=S)C1Cc2ccccc2C(=O)O1 (stereo unspecified),-38,102,95,3
O=C(c1ccc2c(c1)N(Cc1ccccc1)CCS2)N1CCC2(CC1)OCCO2,-4,101,104,-80
CSc1nc(NC2CCCCC2)c(C#N)c(-c2ccccc2)n1,0,99,102,-1
COc1ccccc1OCCNC(=O)c1ccc(S(C)(=O)=O)cc1,-19,x,x,-8
S=c1[nH]nc(COc2ccccc2)n1/N=C/c1cccnc1,-20,101,101,46
O=C1CCN(C(=O)c2ccc3ccccc3n2)CC1,-11,103,101,-22
CCN(CC)C(=S)Oc1ccccc1C(=O)Nc1ccc(Cl)c(Cl)c1,-21,105,105,-4
Cc1ccc(C(=O)OCC(=O)Nc2c(F)c(F)c(F)c(F)c2F)s1,x,102,107,-7
CC(=O)N1CCc2cc(S(=O)(=O)NC(CC(C)C)C(=O)N(C)Cc3ccccc3)ccc21 (stereo unspecified),-12,100,103,2
CC(Sc1nnc(-c2ccncc2)n1C)C(=O)NC(N)=O (stereo unspecified),-11,98,100,-21
Cc1cc(C)cc(OCC(=O)OCC(=O)NC2CC2)c1,x,101,101,-8
Cc1cccc(C(=O)N/N=C/c2ccc3c(c2)n(C)c(=O)n3C)c1,-15,105,103,46
NC(=O)C1CCN(C(=O)C2c3ccccc3C(=O)N3CCc4ccccc4C23)CC1 (stereo unspecified),-18,103,103,-11
CC1(C)CC(NC(=O)c2ccccc2C(=O)NC2CC(C)(C)NC(C)(C)C2)CC(C)(C)N1,-19,104,103,1
CCOC(=O)c1noc2ncnc(N3CCc4cc(OC)c(OC)cc4C3C)c12 (stereo unspecified),-11,101,101,-6
Cc1ccc(C2(CCN=Cc3ccccc3)CCOC(C)(C)C2)cc1 (stereo unspecified),8,101,103,-1
COC(=O)Nc1scc(-c2ccccc2)c1C(=O)NCc1ccco1,-24,100,101,-7
OC(Cn1cncn1)Cn1cncn1,-22,108,100,-8
O=C1CC2CCC(CN1)N2S(=O)(=O)c1ccc(C(=O)O)cc1 (stereo unspecified),-59,103,101,-3
CN1c2ccccc2CC(C#N)(C#N)C12CCCCC2,-46,116,130,-8
CC(NCc1nc2cc(Cl)ccc2c(=O)[nH]1)C1CC2CCC1C2 (stereo unspecified),-8,101,108,0
CCCCc1cc2c(=O)c(-c3cc4ccccc4o3)coc2cc1O,-17,101,102,-2
O=C(NCCN1CCOCC1)c1cc2sccc2n1Cc1ccc(Cl)cc1,-23,102,102,-4
S=C(Nc1ccccc1)N1CCN(c2ccccc2)CC1,-3,103,99,3
Cc1ccc(-c2n[nH]c(=S)[nH]c2=O)cc1,-26,107,120,30
CC1CCCCN1C(=O)Cn1nnc2c(cnn2-c2ccccc2)c1=O (stereo unspecified),-31,103,103,-2
O=C1C2CN3CN(C2)CC1(c1ccccc1)C3,34*,99,108,4
CC1=C(C(=O)N2CCOCC2)C(c2ccccc2OC(C)C)C2=C(CCCC2=O)N1 (stereo unspecified),-35,103,100,118
CNC(=S)N1CCc2ccccc21,-28,98,100,24
OCc1csc(=Nc2ccccc2)n1-c1ccccc1,x,102,104,-10
Cc1[nH]c2ccccc2c1C(O)c1ccncc1 (stereo unspecified),x,101,104,-7
CCc1nc2oc(C(=O)c3ccc(Cl)cc3)c(N)c2c2c1COC(C)(C)C2,-19,103,104,-4
NS(=O)(=O)c1ccc(N(S(=O)(=O)c2ccccc2)S(=O)(=O)c2ccccc2)cc1,-3,108,113,-15
CC(Sc1nnc(-c2cccc(S(=O)(=O)N3CCCC3)c2)n1-c1ccccc1)C(N)=O (stereo unspecified),-75,94,94,-8
COC(=O)c1ccccc1SNc1ccccc1C,-36,104,102,8
NC(=O)CSc1nc2ccc(Cl)cc2[nH]1,-3,105,103,5
CCN(CC)c1ccc2cc(C(N)=O)c(=Nc3cccc(C)c3)oc2c1,-24,104,108,4
CC(=O)Nc1ccccc1-c1n[nH]c(=S)[nH]c1=O,0,101,102,8

The list goes on.
SMILES,MenB inh,Polio RdRp inh,Polio RdRp inh intensity,MbtI inh
COc1ccc(C[C@@H]2NC[C@@H](O)[C@@H]2OC(C)=O)cc1,4,100,101,-1
O=C(Cn1cnnn1)Nc1nccs1,5,104,108,5
CCC(Oc1ccccc1)C(=O)N1C(=O)c2cccc(N)c2C1=O (stereo unspecified),5,100,93,4
CCC(C)C(NC(=O)C1CCC(C)CC1)C(=O)NCc1cccnc1 (stereo unspecified),-5,100,102,-9
Cc1cc(NCCO)c2cc(O)ccc2n1,x,98,92,-22
CC1CCN(c2nnc(NC(=O)c3csc4c3CCCC4)s2)CC1,-8,102,107,-5
N#Cc1cc(C#N)c(SCC(=O)NCc2ccco2)nc1N,-7,99,107,15
COC(=O)C1CCN(c2ccc(Cl)nn2)CC1,-1,x,x,-3
COc1ccc(C(=O)N2c3ccccc3N3C(c4c(C)cc(C)cc4C)=NON23)cc1,2,99,107,-1
NNC(=O)c1ccc(OC2OCCOC2Oc2ccc(C(=O)NN)cc2)cc1 (stereo unspecified),-3,101,97,-5
Cn1c(=O)[nH]c(=O)c2c1nc(N1CCN(CC(N)=O)CC1)n2Cc1ccccc1F,-12,101,106,22
O=C(OCc1nnc(-c2ccc(Cl)cc2)o1)C1=NN(c2ccccc2)C(=O)CC1,-4,102,111,-3
O=S(=O)(/N=c1/cc(-c2ccccc2)ss1)c1ccccc1,-2,100,110,x
O=C(NCC1CCCO1)c1ccc2c(=O)n(-c3ccccc3)c(=S)[nH]c2c1 (stereo unspecified),-30,101,95,-6
O=C1CC(Nc2ccc(F)cc2)C(=O)N1C1CCCC1 (stereo unspecified),-16,104,103,-1
Cc1cccc(NC(=O)NCC2CC2)c1,-2,103,100,9
CCN(CC)S(=O)(=O)c1ccc2oc(SCc3cn4ccsc4n3)nc2c1,-29,103,99,56
Cc1[nH]nc2c1/C(=N\O)CC(c1ccccc1)C2 (stereo unspecified),x,99,104,-6
Cc1ccc(/C=C/C(=O)Nc2ccc(-c3nnc4n3CCCCC4)cc2)o1,3,103,102,9
N#CC1=C(N)Oc2cc(N)ccc2C1c1ccccc1 (stereo unspecified),-26,98,106,x
Cc1cc(Nc2ccc(C(=O)N3CCN(c4ccccn4)CC3)cc2)n2ncnc2n1,11,98,102,15
Cc1cc(=O)[nH]c2c(C)c(Cl)ccc12,29*,101,106,2
O=C(O)CNC(=O)C1CCCCC1,x,103,100,-3
CCOC(=O)C1=C(CN2c3ccccc3CC2C)NC(=O)NC1c1ccccc1 (stereo unspecified),-9,103,101,-6
N#C/C(=C\c1ccc(C(F)(F)F)cc1)c1csc2ccccc12,-6,102,106,33
C=CCn1c(=O)/c(=C\c2cccs2)s/c1=C(/C#N)C(=O)N1CCCC1,-82,107,118,-4
N#C/C(=C/c1ccc(-c2cccc(C(F)(F)F)c2)o1)C(=O)OC1CCCCC1,-16,101,104,-23
CN(Cc1nc2ccccc2n1C)CC1CCCCC1,-19,102,104,0
NC(=O)c1ccccc1NC(=O)CC1(CC(=O)O)CCCC1,x,104,104,0
O=S(=O)(CCSc1ccc(C(F)(F)F)cn1)c1ccc(OC(F)(F)F)cc1,-3,103,110,-4
COC(=O)c1cc(S(=O)(=O)N2CCCCC2C)c[nH]1 (stereo unspecified),-30,102,99,-9
O=C(O)CSc1nc(-c2ccccc2)cc(C(F)F)n1,2,100,101,0

Reprinted from the part before: six entries; new compounds follow.
SMILES,MenB inh,Polio RdRp inh,Polio RdRp inh intensity,MbtI inh
N#C/C(=C/c1ccc(-c2cccc(C(F)(F)F)c2)o1)C(=O)OC1CCCCC1,-16,101,104,-23
CN(Cc1nc2ccccc2n1C)CC1CCCCC1,-19,102,104,0
NC(=O)c1ccccc1NC(=O)CC1(CC(=O)O)CCCC1,x,104,104,0
O=S(=O)(CCSc1ccc(C(F)(F)F)cn1)c1ccc(OC(F)(F)F)cc1,-3,103,110,-4
COC(=O)c1cc(S(=O)(=O)N2CCCCC2C)c[nH]1 (stereo unspecified),-30,102,99,-9
O=C(O)CSc1nc(-c2ccccc2)cc(C(F)F)n1,2,100,101,0
O=C(NCc1cccnc1)C1CCCCC1,-26,102,100,2
Cc1ccc(-c2csc3nnc(SCc4ccc5c(c4)OCO5)n23)cc1,-17,99,100,-14
Cc1ccc(C2=NNC(=O)CC2)cc1C,-28,92,102,22
COc1cc2ncnc(NCCCn3ccnc3)c2cc1OC,-1,90,93,-2
CC(=O)Nc1cc2c(cc1N)OCCO2,-9,106,99,x
CN1C(=O)N(C)C2(O)c3ccccc3/C(=N\N=C(N)N)C12O (stereo unspecified),-5,101,102,1
O=C(NCc1ccco1)c1ccc(-c2cc3ccccc3oc2=O)cc1,-6,102,102,i
CCCc1nc2ccccc2n1CC(=O)O,3,104,106,x
CC(C)CC(C(=O)Nc1ccccc1)N1Cc2ccccc2C1=O (stereo unspecified),0,100,103,-17
O=C(C1CCNCC1)N1CCCCC1,-22,100,100,6
CCCN1C(=O)NC(CCC(=O)O)C1=O (stereo unspecified),-17,102,103,-5
CCOC(=O)c1c(NC(=O)CSc2nc(N)cc(=O)[nH]2)sc2c1CCCCC2,-5,102,102,8
O=C(O)C1=NN(C2CCS(=O)(=O)C2)C(=O)CC1 (stereo unspecified),-4,98,101,-6
Cc1c2cnn(CC(=O)O)c(=O)c2c(C)n1Cc1ccccc1F,-16,102,96,4
CC(=O)N1CCC(N(C(=O)c2ccc(F)cc2)c2ccc3c(c2)OCO3)CC1,-9,102,103,-4
CC1(C)Cc2c(sc3nc(CCCc4ccccc4)n(N)c(=O)c23)CO1,-12,103,106,-23
O=C(CSc1nc(N2CCCCC2)nc(N2CCCCC2)n1)Nc1ccccc1,-24,100,100,4
O=C(O)C(C(=O)OCc1ccccc1)c1ccccc1 (stereo unspecified),-19,104,103,-4
O=C1CC(c2ccccc2)C(=O)N1c1ccc(F)cc1 (stereo unspecified),3,112,115,-11
CCOC(=O)N1CCN(C(=O)c2oc3ccc(S(=O)(=O)N(CC)CC)cc3c2C)CC1,-6,100,101,-1
CC1CN(C(=O)CCSc2ccc(Cl)cc2)CC(C)O1 (stereo unspecified),x,101,99,14
COc1cc2c(cc1O)[C@@H](Cc1ccc(O)cc1)[N+](C)(C)CC2,4,100,100,-3
Cc1[nH]c2ccc(C(=O)OCC(=O)Nc3nnc(-c4ccccc4)o3)cc2c1C,-43,116,122,-16
O=C(Cn1nc(C(F)F)cc1C1CC1)N1CCCC1,3,100,99,-2
CN(C(=O)c1cc2c(n(-c3ccccc3)c1=O)CCCC2=O)c1ccc(O)cc1,13,99,102,5
O=C(c1ccc2c(c1)C(=O)N(Cc1ccco1)C2=O)N1CCN(c2ccccc2)CC1,-15,100,109,-12
CC1CCCCN1C(=O)c1cc(-c2ccccc2)on1 (stereo unspecified),22,101,108,-4
COc1ccc(S(=O)(=O)N(CC(=O)N2CCOCC2)Cc2ccccc2)cc1C,5,100,103,-13
CCCNC(=O)CCc1c(C)nc2c(c(C)nn2-c2ccc(C)cc2)c1C,4,101,98,3
